Screening data as filed in PubChem BioAssay.
VDR inhibitor – vitamin D3 receptor (human) inhibition; VDR-SRC2-3 peptide fluorescence polarization, 2 h; Potency, µM, for inactives: max response, negative = inhibition, most hits filed as inhibitors; 400,000 tested, 0.93% active; active means well fitted inhibition curve with a large enough effect; inconclusive means small, poorly fitted or top-dose-only effect, or another doubt; inactive means no such curve, though single readings can be large or run the other way; further: series mostly up to about 120 µM
Target sequence (P11473 whole entry, looked up): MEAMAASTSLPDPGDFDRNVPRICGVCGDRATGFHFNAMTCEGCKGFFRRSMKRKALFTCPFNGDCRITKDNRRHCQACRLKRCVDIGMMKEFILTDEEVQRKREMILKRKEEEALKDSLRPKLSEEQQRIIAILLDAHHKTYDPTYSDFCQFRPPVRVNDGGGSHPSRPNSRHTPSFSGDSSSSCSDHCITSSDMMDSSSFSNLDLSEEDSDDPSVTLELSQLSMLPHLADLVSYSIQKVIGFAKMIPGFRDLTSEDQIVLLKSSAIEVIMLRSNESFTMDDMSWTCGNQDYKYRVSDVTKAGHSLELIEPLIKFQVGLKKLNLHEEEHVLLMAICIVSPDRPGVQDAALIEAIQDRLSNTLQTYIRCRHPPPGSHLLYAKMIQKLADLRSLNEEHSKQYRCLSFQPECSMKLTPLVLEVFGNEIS
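The screen uses fluorescence polarization to detect compounds that interfere with recruitment of the SRC2-3 coactivator peptide to VDR; plates are read after 2 h at room temperature.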
Numbers without * were called inactive; ? = inconclusive; & = joins results of further samples. On the % scale 0 is the no-effect control and ±100 the full control effect; potency means the concentration at half of the fitted maximal effect.

VDR inhibitor | mol
1% | Cc1onc(-c2ccc(Cl)cc2)c1-c1ccnc(SCC(=O)Nc2ccc(C(C)C)cc2)n1
-4% | COC(=O)c1ccc(C2=NOC(C)(c3sc(-c4ccccc4)nc3C)C2)cc1 (stereo unspecified)
8% | CC(=O)NC(Cc1cc(C)ccc1C)C(=O)N1CCN(C(=O)c2ccccc2Br)CC1 (stereo unspecified)
4% | CC(=NO)C1CCC2C3CCC4CC(=NO)CCC4(C)C3C(C)(O)CC12C (stereo unspecified)
2% | Cc1ccc(S(=O)(=O)CCC(=O)Nc2nc3c(s2)CCCC3)cc1
0% | Cc1ccc(/C=C(\C#N)C(=O)Nc2cccc(Br)c2)o1
25µM* | CCCOc1ccc(Cl)cc1/C=C1/C(=O)ON=C1C
-24% | CCOc1ccc(CCNC(=O)CSCc2nc(-c3cccc(C)c3)oc2C)cc1OCC
-10% | c1ccc(CCCCN2C(Nc3ccccc3)=NC[C@@H]2Cc2ccccc2)cc1
-1% | CCN(CC)CC(C)(C)COC(=O)c1oc2ccccc2c1C
4% | Cc1ccc(CNC(=O)c2nnn(CC(=O)Nc3cccc(C)c3C)c2N)cc1
-2% | O=C(Nc1nnc(-c2cccnc2)o1)c1cccc(Cl)c1
-6% | CCOC(=O)N1CCN(C(=O)c2cccn3c(=O)c4sccc4nc23)CC1
-15% | O=C(NC(=S)Nn1cnnc1)c1ccccc1
-6% | CC1Cc2ccccc2N1C(=O)CSc1nc2ccccc2o1 (stereo unspecified)
-5% | O=C(c1ccc(=O)[nH]c1)N(Cc1cccs1)C1(C(=O)NC2CCCC2)CCCCC1
2% | COc1ccc(CNC(=O)COC(=O)c2c(C)nn(-c3ccccc3)c2C)cc1OC
-2% | C=CCNC(=S)NNC(=O)c1ccc(C)c(Cl)c1
15% | Cc1ccc(C)c(CN2C(=O)N(c3cc(Cl)ccc3C)S(=O)(=O)c3ccccc32)c1
10% | O=C(CN1CCN(CC(=O)Nc2cccc(F)c2)CC1)NCC1(N2CCOCC2)CCCCC1

4 compounds picked at random from the list so far:
VDR inhibitor | mol
-2% | O=C(Nc1nnc(-c2cccnc2)o1)c1cccc(Cl)c1
1% | Cc1onc(-c2ccc(Cl)cc2)c1-c1ccnc(SCC(=O)Nc2ccc(C(C)C)cc2)n1
0% | Cc1ccc(/C=C(\C#N)C(=O)Nc2cccc(Br)c2)o1
4% | Cc1ccc(CNC(=O)c2nnn(CC(=O)Nc3cccc(C)c3C)c2N)cc1

The results go on:
VDR inhibitor | mol
3% | C[C@]12c3[nH]c4ccccc4c3CCN1C(=O)C(CC(=O)NCC13CC4CC(CC(C4)C1)C3)C[C@@H]2C(=O)N1CCOCC1 (stereo partly specified)
-19% | Cc1cc(C)c2nc(-c3ccccn3)cc(C(=O)n3cccn3)c2c1
-3% | CC(C)S(=O)(=O)c1ccc(C(=O)Nc2ccc(F)cc2F)cn1
5% | O=C(NCc1ccccc1)C(=O)NCC(c1ccco1)S(=O)(=O)c1ccc(Cl)cc1 (stereo unspecified)
-17% | CC1(C)Oc2cc(N)c([N+](=O)[O-])cc2O1
-10% | CC(C)C[C@@H](CN)NC(=O)c1nc[nH]c1C(=O)N[C@@H](Cc1c[nH]c2ccccc12)C(=O)CNC[C@H](C)NC(=O)c1nc[nH]c1C(=O)N[C@@H](C)C(=O)O
-1% | N#CC(CCc1ccccn1)c1ccccc1 (stereo unspecified)
-15% | COc1ccc(S(=O)(=O)N2CCCOC2CNC(=O)C(=O)NCc2ccccc2F)cc1C (stereo unspecified)
9% | CCN(CC)S(=O)(=O)c1ccc(N/N=C(\C)c2cccnc2)nc1
-6% | O=C(C1CCCN(S(=O)(=O)c2cnc[nH]2)C1)N1CCN(Cc2ccccc2)CC1 (stereo unspecified)
1% | Cc1cc(Br)ccc1SCC(=O)OCC(O)=C(C#N)c1nc2ccccc2[nH]1
20% | COc1ccc(/C=C(\NC(=O)c2ccco2)C(=O)N2CCOCC2)cc1
1% | O=C(NCc1ccc(Cl)cc1)C1(c2cccs2)CCOCC1
-6% | O=C(N/N=C1/CCSC1)c1cc(Br)ccc1O
2% | Fc1ccccc1C1c2[nH]c3ccccc3c2CCN1Cc1cccn1-c1ncccn1 (stereo unspecified)
-2% | O=S(=O)(Nc1n[nH]c(C(F)(F)F)n1)c1ccccc1
6% | Cc1cc(NC(=O)c2ccccc2Cl)c(C(C)C)cc1O
13% | CCOc1ccc(N(CC)S(=O)(=O)N2CCCC(C(=O)NCCc3ccccc3OC)C2)cc1 (stereo unspecified)
11% | O=C(CNC(=O)c1ccncc1)N/N=C/c1ccccc1[N+](=O)[O-]
-14% | Cc1ccc(NC(=O)/C(C#N)=C/c2cc(C)n(-c3ccc(F)cc3)c2C)cc1C
27% | O=S(=O)(Nc1ccc2c(c1)OCCO2)c1cccc(F)c1
8% | O=C(Nc1ccc2c(c1)CCCN2C(=O)c1ccccc1)c1ccccc1
2% | O=C(Nc1ccc(Br)cc1)c1ccc(-n2cnnn2)cc1
-4% | C=CCC[C@@H](Cc1ccc(F)cc1)C(=O)OC[C@H](Cc1c[nH]c2ccccc12)NC(=O)[C@@H](CC=C)CC(=O)N[C@H](CO)Cc1ccccc1
-4% | COC(=O)c1ccc(C(=O)OC)c(NC(=O)CSc2ccccn2)c1
-8% | Nc1ncnc(Nc2ccccc2Oc2ccccc2)n1
20% | Cc1ccccc1CCN(C(=O)Cn1nnc2ccccc21)C(C(=O)NC(C)(C)C)c1ccsc1 (stereo unspecified)
-12% | CCN(C(=O)COC(=O)c1ccc(S(=O)(=O)N2CCCc3ccccc32)cc1)C1CCS(=O)(=O)C1 (stereo unspecified)
4% | CCOc1ccc(NC(=O)CSc2nc(C)c(C(=O)Nc3ccccc3)c(-c3ccc(Cl)cc3)c2C#N)cc1
-1% | O=C(N/N=C/c1ccc(-c2ccc([N+](=O)[O-])cc2)o1)[C@H]1C[C@@H]1c1ccccc1
8% | CC(C)(C)c1cc(NC(=O)Nc2ccc(Cl)cc2Cl)no1
-24% | COc1ccc(-n2c(=S)[nH]c3cc(C(=O)NCc4ccc(F)cc4)ccc3c2=O)c(OC)c1
10% | CN(CCc1ccccc1)c1ccc([N+](=O)[O-])cn1
-6% | CCCCCCC(=O)O
-7% | COc1ccc(CCN2CC(C(=O)Nc3ccccc3F)CC2=O)cc1OC (stereo unspecified)
5% | Cn1c(-c2ccc(Cl)cc2)cnc1N
? | COc1ccc(-n2c(SCC(=O)Nc3ccccc3OC)nc(O)cc2=O)cc1
-16% | CC(=O)[C@@H]1[C@@H](C)N(Cc2ccccc2)C(=O)N[C@H]1c1ccccc1
-6% | Cn1c2c(c(=O)n(C)c1=O)C1c3cc(Cl)ccc3OCC1CO2 (stereo unspecified)
0% | COc1ccc(-n2c(-c3ccccc3)nnc2-c2ccc(Cl)cc2)cc1

Given tab-delimited: entries from further up.
SMILES	VDR inhibitor
Cc1ccccc1CCN(C(=O)Cn1nnc2ccccc21)C(C(=O)NC(C)(C)C)c1ccsc1 (stereo unspecified)	20%
O=S(=O)(Nc1ccc2c(c1)OCCO2)c1cccc(F)c1	27%

Continuation.
VDR inhibitor | mol
7% | COc1ccc2ccccc2c1CN1CCN(C)CC1
2% | Cc1ccc(S(=O)(=O)N2CCC(C(=O)OC(C)C(=O)NCc3ccc4c(c3)OCO4)CC2)cc1 (stereo unspecified)
5% | CCCCc1cc(=O)oc2c3c(cc(OCC(=O)NCCCO)c12)OC(C)(C)CC3
3% | O=c1[nH]c(=O)n([C@@H]2C[C@H](O)[C@H](CO)O2)cc1C(F)(F)F
2% | CSCCC(NS(=O)(=O)c1ccc2ccccc2c1)C(=O)OCC(=O)c1ccc(C(C)C)cc1 (stereo unspecified)
2% | CCSc1nnc(NC(=O)COc2ccc3ccccc3c2)s1
4% | C=CCN(C(=O)CNC(=O)c1cccs1)C(C(=O)NC1CCCCC1)c1cccnc1 (stereo unspecified)
-17%&-4% | COc1ccccc1[C@@H]1C(c2ccccc2)=NN(c2ccc(Br)cc2)[C@H]1C(=O)N1CCOC1=O
-10% | CN(C)S(=O)(=O)c1cccc(NC(=O)c2ccncc2)c1
1% | CC1CN(C2CCN(S(=O)(=O)c3ccc4ccccc4c3)CC2)CC(C)O1 (stereo unspecified)
9% | Cc1onc(-c2c(F)cccc2Cl)c1C(=O)N1C=CC(C(F)(F)Cl)=NCC1
-1% | COc1ccc(C2(CNC(=O)c3ccccc3)CCCC2)cc1OC
1% | Brc1ccc(CN2CCc3nc(Nc4ccccc4)ncc3C2)s1
-17% | C[C@]12CC[C@@H]3c4cc(O)c(O)cc4CC[C@H]3[C@@H]1CC[C@@H]2O
4% | CCn1c(SCC(=O)N/N=C/c2ccccc2OCC(=O)O)nnc1-c1ccc(C(C)(C)C)cc1
21% | Cc1ccc(-n2[nH]c(C)c(/C=N/n3c(C)nc4ccccc4c3=O)c2=O)cc1
-19% | CCCn1c(N)c(Br)c(=O)[nH]c1=O
-17% | O=C(CCc1nc2ccccc2c(=O)[nH]1)N1CCN(c2ccccc2Cl)CC1
-14% | COc1cccc(NC(=O)C(NCCc2ccc(S(N)(=O)=O)cc2)c2ccccc2)c1 (stereo unspecified)
-21% | CCNC(=O)CC1C(=O)N(c2ccc(F)cc2)C(=O)N1CCC(C)C (stereo unspecified)

4 of the compounds above, field by field:
Brc1ccc(CN2CCc3nc(Nc4ccccc4)ncc3C2)s1
- VDR inhibitor: 1%
Cc1ccc(-n2[nH]c(C)c(/C=N/n3c(C)nc4ccccc4c3=O)c2=O)cc1
- VDR inhibitor: 21%
O=c1[nH]c(=O)n([C@@H]2C[C@H](O)[C@H](CO)O2)cc1C(F)(F)F
- VDR inhibitor: 3%
CCCCc1cc(=O)oc2c3c(cc(OCC(=O)NCCCO)c12)OC(C)(C)CC3
- VDR inhibitor: 5%

Additional compounds
VDR inhibitor | mol
6% | CCNC(=O)C1CCCN1S(=O)(=O)c1ccc2ccccc2c1 (stereo unspecified)
-11% | CC(C)CNC(=O)C1C2C=CC(C2)C1C(=O)O (stereo unspecified)
-2% | Cc1ccc(S(=O)(=O)N(C)c2ccc(OCC(=O)Nc3nc4c(ccc5ccccc54)s3)cc2)cc1
0% | CN(C)CCCNC(=O)C1CCNCC1
-4% | CCN(CC)c1ccc(-c2nc(-c3ccccn3)no2)cc1[N+](=O)[O-]
-5% | CN1CCN(C(=O)C(=O)Nc2c3c(nn2-c2cccc(Cl)c2)CSC3)CC1
16% | COc1ccc(N2C(=O)C3CCCN3C2c2ccccc2OC)cc1 (stereo unspecified)
-16% | CC(=O)Nc1ccccc1C(=O)C(=O)Nc1ccc(C)c(C)c1
0% | CC(C)(C)c1ccc(S(=O)(=O)N2CCN(Cc3noc(CCC(=O)N4CCCCC4)n3)CC2)cc1
-5% | COc1cccc(OC)c1C(=O)N[C@@H]1C(=O)N2[C@@H]1SC(C)(C)[C@@H]2C(=O)O
-8% | COc1ccc(OC)c(NC(=O)CC2SC(=NCc3ccccc3)NC2=O)c1 (stereo unspecified)
7% | CCC(=O)N1N=C(c2ccc(C)cc2)CC1c1ccco1 (stereo unspecified)
5% | CCOC(=O)[C@@H]1[C@H]2COc3cc(OC)ccc3[C@@H]2N2C(=O)N(c3ccc(OC)cc3)C(=O)[C@@]12C
-27% | COc1ccc(C(=O)Oc2c(Sc3ccccc3)c(C)nn2-c2ccccc2)c(OC)c1
-6% | CC(=O)NC1(c2nnnn2CCOC(=O)Nc2ccc(Cl)cc2)CCCCC1
25% | COc1cccc(C2C3=C(N=C4SCC(=O)N42)c2ccccc2CC3)c1OC (stereo unspecified)
7% | COc1ccc(-c2nc3cnc(Oc4cccc(Cl)c4)nc3n(C3CC3)c2=O)cc1
-1% | CSCCC(NC(=O)c1occc1C)C(=O)O (stereo unspecified)
-4% | COc1ccccc1CNC(=O)CCCCn1c(=O)c2ccccc2n(Cc2ccccc2C)c1=O
-6% | CC(=O)c1sc(NC(=O)C2(F)C(F)(F)C(F)(F)C(F)(F)C(F)(F)C2(F)F)nc1C
-17% | CN(Cc1ccc(Cl)cc1)C(=O)COC(=O)CSc1ccc([N+](=O)[O-])cc1
2% | COC(=O)C1(C)NC(c2cccc(C)c2)C2C(=O)N(c3ccc(F)cc3)C(=O)C21 (stereo unspecified)
20% | COCCNC(=O)C(c1ccc(C)o1)N(C(=O)c1snc(C(N)=O)c1N)c1ccc(C)cc1 (stereo unspecified)
16% | CN1CC(=O)N(CC(=O)Nc2ccc(Br)cc2F)C1=O
-22% | CCCCCCC1CC(=O)NC(=S)N1 (stereo unspecified)
-5% | Cc1ccc2[nH]c(=O)c3cc(C(=O)N4CCN(C(=O)c5ccco5)CC4)sc3c2c1
7% | c1ccc(CNc2nc(N3CCOCC3)nc(N3CCOCC3)n2)cc1
-24% | CC(=O)c1ccc(NC(=O)Cn2nc(C)c([N+](=O)[O-])c2C)cc1
7% | CSc1ccc(CCNC(=O)c2ccc3c(c2)c(C)c(C)n3Cc2ccc(F)cc2)cc1
-17% | COc1ccc(C2/C(=C(/O)c3ccc(C)cc3)C(=O)C(=O)N2c2ccccn2)cc1 (stereo unspecified)
-16% | Cc1ccc(NCc2nnc(SCc3ccc(C#N)cc3)n2Cc2ccco2)c(C)c1
-8% | Cc1cc(Oc2ccc(C#N)cc2)nc(N2CCOCC2)n1
-11% | C/C(=C\C[Si](C)(C)C)CC[C@H](O)C1=CCCCC1=O
-20% | COc1ccc(Oc2ncc3nc(C)c(=O)n(Cc4cccs4)c3n2)cc1
-15% | Cc1cccc(N2C(=O)N3[C@H](c4ccc(F)cc4)[C@@H]4C(=O)N(C5CCCCC5)C(=O)[C@@H]4[C@]3(Cc3ccccc3)C2=O)c1
-8% | Cc1cc(C)nc(N(C#N)Cc2ccccc2)n1
-20% | O=C(c1n[nH]c2ccccc12)N1CCN(S(=O)(=O)c2ccc(Cl)cc2)CC1

The list is partial. The share of hits here may be higher or lower than overall.
